GIV Gai3 FP – inhibitors of GIV GBA-motif binding to rat Galpha-i3; percent of control (FP), % (no concentration beside the values); Galpha-i3/FITC-GIV peptide fluorescence polarization, 90 min; stronger effect = lower value; scaled: aluminum fluoride 0%, vehicle 100%; 210,000 tested, 0.42% active; P08753;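 active means replicate mean at 85% of control or lower, very high polarization wells dropped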;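 further: wells of about 15 µL received 100 nL stock; the first replicate is given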
Target sequence (P08753 whole entry, looked up): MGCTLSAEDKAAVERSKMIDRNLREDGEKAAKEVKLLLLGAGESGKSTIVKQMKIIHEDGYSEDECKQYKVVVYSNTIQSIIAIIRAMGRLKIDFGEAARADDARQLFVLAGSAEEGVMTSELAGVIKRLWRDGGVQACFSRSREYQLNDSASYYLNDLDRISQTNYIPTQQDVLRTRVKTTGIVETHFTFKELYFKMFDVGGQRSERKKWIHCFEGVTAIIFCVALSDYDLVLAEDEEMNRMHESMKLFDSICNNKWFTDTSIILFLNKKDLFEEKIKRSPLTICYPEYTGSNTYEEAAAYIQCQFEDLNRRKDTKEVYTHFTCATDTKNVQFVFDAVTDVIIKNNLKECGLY
The depositor's hits bear a star.

GIV Gai3 FP	structure
106.8	Cc1ccc(N2C(=O)C3C4c5ccccc5C(C=O)(c5ccccc54)C3C2=O)cc1 (stereo not given)
104.0	O=C(NC1CC1)c1cn2c(n1)CCCC2
103.9	Cc1c(CC(Cl)(Cl)Cl)c2c(n1-c1ccc([N+](=O)[O-])cc1)CC(C)(C)CC2=O
100.4	O=C(CSc1nnc(NC(=O)CN2CCCCC2)s1)Nc1ccc(Br)cc1
101.1	CCc1ccc(C2(O)CC(C(F)(F)F)=NN2C(=O)c2ccc(C)cc2)cc1 (stereo not given)
105.1	Brc1ccccc1-c1nc2c3c(-c4ccccc4)c(-c4ccccc4)oc3ncn2n1
104.6	O=C(c1ccc2c(=O)n(Cc3ccc(Cl)cc3)c(=S)[nH]c2c1)N(CCO)Cc1ccccc1
104.7	CCCCOc1ccc(C2CC(=O)C3=C(C2)c2c(ccc4ccccc24)NC3c2ccc([N+](=O)[O-])cc2)cc1 (stereo not given)
101.9	COc1ccc(-c2cnn3c(C)cc(C)nc23)cc1S(=O)(=O)N1CCCCC1
105.1	CCN(c1ccc2sc(C(=O)N3CCN(c4ccc(OC)cc4)CC3)cc2c1)S(C)(=O)=O
98.5	CC(C)NC(=O)c1cc2c(s1)CN(C1CCCC1)C2
100.1	CN(C)S(=O)(=O)c1ccc2c(c1)cc(C(=O)NC1CCCCC1)n2Cc1ccncc1
109.6	CCOc1ccc(-c2[nH]nc3c2C(c2cccc(OC(=O)N4CCOCC4)c2)C(C#N)=C(N)O3)cc1OC (stereo not given)
98.6	CCC(C)NC(=O)CC1CCN(C(=O)c2ccc3oc(-c4ccccc4)nc3c2)CC1 (stereo not given)
107.6	CCN(CC)C1c2cccc3cccc(c23)C1NS(=O)(=O)c1ccccc1 (stereo not given)
111.7	C(=C\C1N(Cc2ccccc2)CCN1Cc1ccccc1)/c1ccccc1
102.0	CCOc1ccccc1N1CCN(C(=O)C2CCN(c3nccc4c(C)nn(CC)c34)CC2)CC1
106.4	Cc1nn(-c2ccc(F)cc2)c2sc(C(=O)Nc3cccc(F)c3)cc12
103.0	CCNc1nc(C(N)=O)c(NC(=O)c2cccc(Br)c2)s1
100.6	CCC1CCCCN1S(=O)(=O)c1cc(-c2nnc(C)o2)co1 (stereo not given)
97.6	CC(C)CN(CC(C)C)C(=O)c1cc(NC(=O)c2ccccc2Cl)cnc1N1CCNCC1
104.9	Brc1ccc(-n2cc(-c3ccccc3)c3c(NCCCN4CCOCC4)ncnc32)cc1
191.0	O=c1oc2cc(O)ccc2cc1-c1nc(-c2ccc(Cl)cc2Cl)cs1
98.3	O=S(=O)(c1ccccc1F)N1CCN(c2ncnc3c2nnn3-c2ccccc2)CC1
105.3	Cc1cc(C)c(S(=O)(=O)N2CCn3cccc3C2c2ccccc2)c(C)c1 (stereo not given)
99.6	Cc1nnc(-c2sccc2C)o1
102.4	COc1cc(NS(=O)(=O)c2ccc3c(c2)-c2oncc2CO3)cc(OC)c1OC
104.6	CC(=O)C1=NN(c2ccccc2C)C2(S1)SC(c1ccc(Cl)cc1)(c1ccc(Cl)cc1)c1ccccc12 (stereo not given)
103.9	O=C1CC(c2ccccc2C(F)(F)F)c2ccccc2N1 (stereo not given)
112.7	Cc1ccc(I)cc1S(=O)(=O)n1nnc2ccccc21
101.2	COc1ccc(S(=O)(=O)N2CCCN(S(=O)(=O)c3ccc(OC)c(OC)c3)CC2)cc1OC
99.9	C(#Cc1cccc(-c2nc(-c3ccccc3)c(-c3ccccc3)[nH]2)c1)c1ccccc1
103.0	COc1ccccc1/C=C1/N=C(c2ccc(OC)c(OC)c2)N(c2cccc(Cl)c2C)C1=O
105.0	O=C(O)CSc1nc2nc[nH]c(=O)c2[nH]1
103.7	O=C(CN1CCOCC1)N1c2ccccc2C=Cc2ccccc21
120.5	CN1C=C(c2ccc3ccccc3n2)C(c2c[nH]c3ccccc23)c2ccccc21 (stereo not given)
98.5	N#CC1=C(N)Oc2n[nH]c(-c3cccc([N+](=O)[O-])c3)c2C1c1cccc(OC(=O)N2CCOCC2)c1 (stereo not given)
114.5	O=C1C(=O)N(c2nccs2)C(c2ccc(F)cc2)/C1=C(/O)c1ccc(F)cc1 (stereo not given)
168.8	O=C1/C(=C/c2ccc(-c3ccc(Br)cc3)o2)C=C(c2ccccc2)N1c1ccccc1Cl
109.9	COc1ccc(N=c2oc3ccc(Br)cc3cc2-c2nc(-c3ccc(Cl)cc3)cs2)cc1
108.2	N#CC1(C#N)[C@@H]2c3ccccc3C=CN2[C@@H](C(N)=O)[C@@H]1c1ccc(F)c(Br)c1
101.4	Cc1ccc(C)c(C2=NC3(CCN(C(C)C)CC3)NC(c3cc(Cl)ccc3O)C2)c1 (stereo not given)
106.7	Cc1nc(N2CCOCC2)c2c(C)c(C(=O)Nc3ccc(C(F)(F)F)cc3)sc2n1
99.1	CCOc1ccc(NC(=O)N2CC(=O)N(CC(=O)Nc3cccc(Cl)c3)c3ccccc32)cc1
105.7	CCOC(=O)c1c(-c2ccccc2)oc2ccc(OC(=O)c3ccccc3OC)cc12
106.5	CCOc1ccc(CCNC(=O)c2sc(-c3cccn3CC)nc2C)cc1OCC
120.3	Cc1ccc2c(c1)-c1c(sn(-c3ccc(C(F)(F)F)cc3)c1=S)C(C)(C)N2
102.0	O=C(Cn1ccc2c(SCc3ccc(F)cc3)nccc21)Nc1ccc2c(c1)OCCO2
108.6	CCC(C)NC(=O)C1CCCN(S(=O)(=O)N(CC)CC)C1 (stereo not given)
99.9	O=C(CSc1nc2c(c(=O)n1-c1ccc(Br)cc1)SCC2)Nc1nccs1
98.7	CCOC(=O)COc1ccc2c(=O)c(-c3ccc(Cl)cc3)c(C(F)(F)F)oc2c1
101.8	Cc1ccc(NC(=O)Cc2c(Sc3ccccc3)c3cc(C)ccc3n2C)cc1
113.7	N#CC1=C(N)N(c2sc3c(c2C#N)CCCCC3)C2=C(C(=O)CCC2)C1c1cccnc1 (stereo not given)
104.0	CC(=O)C1=C(C)NC(SCC(=O)Nc2ccc(Br)cc2)=C(C#N)C1CC(C)C (stereo not given)
104.9	O=[N+]([O-])c1cccc(C2C=C(c3ccc(Br)cc3)Nc3ncnn32)c1 (stereo not given)
98.5	COc1ccccc1-c1cc(C(=O)NCc2ccccc2)c2c(-c3ccccc3)[nH]nc2n1
104.3	Cc1ccc(S(=O)(=O)Nc2cc3c4c(oc3c3ccccc23)CCCC4=O)c(C)c1
110.1	COC(=O)C1C(=O)NC(SCC(=O)Nc2ccccc2C)=C(C#N)C1c1ccccc1Cl (stereo not given)
140.8	Cc1c(C(=O)O)sc2ncnc(Nc3ccc(F)c(Cl)c3)c12
98.2	Cc1nc(-c2cc(S(=O)(=O)N3CCN(c4ccc(Cl)cc4)CC3)c(C)s2)sc1C

Four entries out of the list above, arranged by their value in GIV Gai3 FP, rising:
SMILES	GIV Gai3 FP
CCOC(=O)COc1ccc2c(=O)c(-c3ccc(Cl)cc3)c(C(F)(F)F)oc2c1	98.7
CCOc1ccc(NC(=O)N2CC(=O)N(CC(=O)Nc3cccc(Cl)c3)c3ccccc32)cc1	99.1
O=C(Cn1ccc2c(SCc3ccc(F)cc3)nccc21)Nc1ccc2c(c1)OCCO2	102.0
N#CC1=C(N)N(c2sc3c(c2C#N)CCCCC3)C2=C(C(=O)CCC2)C1c1cccnc1 (stereo not given)	113.7

(continued)
GIV Gai3 FP	structure
99.4	CC1CCN(Cc2nnc(-c3cn(CC(=O)N4CCc5ccccc54)c4ccccc34)o2)CC1
117.3	CCN(CC)CCNC(=O)c1c(O)c2cccc3c2n(c1=O)CC3
101.8	Cc1ccc(-c2ccc3nn(CC(=O)Nc4ccc(C)cc4Br)c(=O)n3n2)cc1
103.3	Cc1ccc(NS(=O)(=O)c2cc(-c3cc(C(F)(F)F)on3)cs2)c(Br)c1
100.7	Cc1nn(-c2ccc3nnc(C)n3n2)c2c1C(c1cccc(O)c1)CC(=O)N2 (stereo not given)
105.9	CCOC(=O)c1ccc(N2C(=S)N=C(Nc3cccc(C)c3)C23CCCCC3)cc1
109.0	CCOC(=O)N1CCN(C(=O)c2ccc3c(=O)n(Cc4ccccc4Cl)c(=S)[nH]c3c2)CC1
108.0	COc1ccc(-c2cc(C(F)(F)F)n3nc(C(=O)NCc4ccc5c(c4)OCO5)cc3n2)cc1OC
104.6	COc1ccc(NC(=O)NCCn2cnc3cc(C(=O)N4CCCC4)ccc32)cc1
108.5	O=C(c1ccc2ccnc(N3CCN(c4ccccc4)CC3)c2c1)N1CCN(c2ccccn2)CC1
104.6	COc1ccc(C2=NN3C(C2)c2cc(Cl)ccc2OC3c2ccc(SC)cc2)cc1 (stereo not given)
112.7	CC(=O)c1c(C)oc2ccc(N(C(=O)c3ccc(Cl)cc3)S(=O)(=O)c3ccccc3)cc12
101.2	CC1=C(C(=O)OCCc2ccccc2)C(c2cccc(Cl)c2Cl)CC(=O)N1 (stereo not given)
101.5	O=C(Nc1cccc(Br)c1)Nc1cccc(-c2nnc(-c3ccccc3)o2)c1
114.6	Cc1ccc(Nc2cc(N(C)C)c3noc4c3c2C(=O)c2ccccc2-4)cc1
99.3	O=C(Nc1cnc2oc(-c3ccccc3)nn2c1=O)c1ccccc1
107.3	COc1ccc(Cc2noc(C(c3ccccc3)C3CCCC3)n2)cc1OC (stereo not given)
97.9	CCCCOc1ccc(C2CC(=O)Nc3c2cnn3-c2ccc3nnc(C)n3n2)cc1OC (stereo not given)
112.5	CC(C)CN(Cc1cc(C(C)(C)C)c(O)c(C(C)(C)C)c1)CC(C)C
109.0	CCCCOc1ccc(C(=O)NCc2nnc(SCC(=O)Nc3sc4c(c3C(=O)OCC)CCC4)n2C)cc1
102.9	Cc1nn(-c2ccc(F)cc2)c2c1c(=O)c(C(=O)NCc1ccccn1)cn2C
99.9	CC(C)c1cc(C2CCCN2Cc2cccc(Br)c2)no1 (stereo not given)
108.3	COc1ccc(C2(CCNC(C)c3ccccc3)CCOC(C)(C)C2)cc1 (stereo not given)
100.5	Cc1nn(-c2ccc(-c3ccccc3)nn2)c(C)c1S(=O)(=O)N1CCN(c2ccccn2)CC1
104.9	Cc1ccc(NC(=O)CSc2nc3ccccc3nc2Cc2cccc([N+](=O)[O-])c2)cc1Cl
102.0	COc1ccc(C2=N/C(=C\c3cccc(OC(C)=O)c3)C(=O)O2)c(Br)c1
195.1	CCOC(=O)c1c(NC(=O)c2ccc(S(=O)(=O)N3CCCC3)cc2)sc2c1CCN(CC)C2
106.2	CC1CCN(c2nc(-c3ccc([N+](=O)[O-])cc3)nc3ccccc23)CC1
101.7	COC(=O)c1ccc2nc(-c3ccc(C)cc3)c(-c3ccc(C)cc3)nc2c1
105.0	CCc1cc2c(NCCN(C)C3CCCCC3)ncnc2s1
97.0	O=C(NCC1CCCO1)c1cccnc1Oc1ccc(NS(=O)(=O)c2ccc(Cl)cc2)cc1 (stereo not given)
107.8	Cc1ccc(NC(=O)CSc2nc3ccccc3c(=O)n2CCCC(=O)NCCCN2CCOCC2)cc1C
107.6	CCOC(=O)c1ccc(NC2=CC(C)(C(=O)OCC)N(c3ccccc3)C2=O)cc1 (stereo not given)
109.6	CCOC(=O)C1=NNC2(c3ccc(Cl)cc3)C(=O)N(c3cccc(Br)c3)C(=O)C12 (stereo not given)
100.4	CC(=O)NC1C(Oc2ccc([N+](=O)[O-])cc2)OC(COC(C)=O)C(OC(C)=O)C1OC(C)=O (stereo not given)
98.4	Cc1ccc(NC(=O)c2sc3ncn(CC(=O)N4CCN(c5ccccn5)CC4)c(=O)c3c2C)cc1Cl
100.9	CCC(Sc1nc2ccccc2c(=O)n1NC(=O)c1ccc(OC)cc1)C(=O)NCc1cccnc1 (stereo not given)
106.1	Cc1nc2ccccc2c(=O)n1-c1ccc(NC(=O)CC(C)(C)C)cc1
101.1	Cc1ccc(C(=O)NCCOc2ccc(-c3ccccc3)nn2)cc1
130.3	Cc1noc(C)c1C1CCCN1Cc1cn(C(C)C)c2ccccc12 (stereo not given)
111.2	O=[N+]([O-])c1ccc(C2N(c3ccccc3)N=C(c3ccccc3)N2c2ccc(N3CCOCC3)cc2)cc1 (stereo not given)
99.8	Cc1cc(SCC(=O)Nc2ccc(Cl)cc2)nc2ccc(S(=O)(=O)N3CCCC3)cc12
101.5	O=C1CCCC2=C1C(c1ccc(OCc3ccccc3F)cc1)Nc1ccc3ccccc3c12 (stereo not given)
100.6	Cc1ccc(C)c(S(=O)(=O)N2CCC3(CC2)NCCN=C3NCc2ccccc2C)c1
102.6	Cn1c(=O)cc2c3c(c(N4CCCCC4)ccc31)C(=O)c1ccccc1-2
107.0	CC(=O)Oc1ccc(C2(C)CC(C)(C)NC(=S)N2c2cccc(C(F)(F)F)c2)c(OC(C)=O)c1 (stereo not given)
104.3	Cc1cc(Cl)ccc1NC(=O)CNS(=O)(=O)c1cc(-c2noc(C3CCC3)n2)cs1
98.7	COc1cccc(NC(=O)Nc2nc3c(s2)CN(S(=O)(=O)c2ccccc2)CC3)c1
98.3	O=c1ccn(-c2ccc(Cl)cc2)nc1-c1nc(-c2cccc(Br)c2)no1
99.9	COc1ccc(N2C(=O)CSC2c2ccccc2Br)c(OC)c1 (stereo not given)
116.4	COC(=O)C1CCN(C(=O)c2cc(-c3ccccc3)nc3ccccc23)CC1

Shown bar-delimited: entries from further up
Compound | GIV Gai3 FP
COC(=O)C1CCN(C(=O)c2cc(-c3ccccc3)nc3ccccc23)CC1 | 116.4
CC(=O)Oc1ccc(C2(C)CC(C)(C)NC(=S)N2c2cccc(C(F)(F)F)c2)c(OC(C)=O)c1 (stereo not given) | 107.0
Cc1ccc(C)c(S(=O)(=O)N2CCC3(CC2)NCCN=C3NCc2ccccc2C)c1 | 100.6
Cc1cc(Cl)ccc1NC(=O)CNS(=O)(=O)c1cc(-c2noc(C3CCC3)n2)cs1 | 104.3
Cn1c(=O)cc2c3c(c(N4CCCCC4)ccc31)C(=O)c1ccccc1-2 | 102.6
COc1ccc(N2C(=O)CSC2c2ccccc2Br)c(OC)c1 (stereo not given) | 99.9

Only part of the results is shown; the hit share may differ from the screen's.
